Source: PubChem BioAssay (National Center for Advancing Translational Sciences (NCATS))
ClpP mod: qHTS Assay for Activators of ClpP | Potency, µM (highest dose often 57.5 µM), without a hit: at the highest dose activity change, negative = active | purified B. subtilis ClpP, FRET peptide cleavage, 20 min | actives 1.9% (n = 340,000) | AID 651965, 2013 | ATP-dependent Clp protease proteolytic subunit (Bacillus subtilis (strain 168)), P80244; active = well fitted falling curve with a large enough effect; inconclusive = small, poorly fitted or top-dose-only effect; inactive = no such curve, though single readings can be large or run the other way; note: potency is the fitted concentration of half-maximal effect; the source files actives as falling curves though it sought activators and does not explain the sign; nearly all actives have a fitted effect of over 65% in size; many hits overshoot -100%
Target sequence (P80244 whole entry, looked up): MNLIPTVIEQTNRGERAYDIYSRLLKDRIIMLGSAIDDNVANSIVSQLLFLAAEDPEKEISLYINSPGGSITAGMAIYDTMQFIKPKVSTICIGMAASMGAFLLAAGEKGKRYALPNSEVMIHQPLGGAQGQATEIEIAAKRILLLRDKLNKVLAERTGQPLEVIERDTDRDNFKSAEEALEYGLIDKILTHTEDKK
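Purified B. subtilis ClpP, 10 microg/mL final in Tris/HCl pH8 with KCl, BSA, glycerol and Tween-20, cleaved an Abz/nitrotyrosine-quenched decapeptide. Fluorescence (ex 320, em 430) was read at 0 and 20 min at room temperature. Delta was normalized to 5.8 microM ADEP and DMSO/no-enzyme controls.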
PINK1 modulator: PINK1 expression modulation; actives 0.2% (n = 410,000); Potency, µM (series often up to 76.6 µM), inactives show at the highest dose activation (PINK1 increase), hits mostly activators; PINK1 immunofluorescence, high-content cytometry, 24 h; active = well fitted activation curve with a large enough effect; inconclusive = small, poorly fitted or top-dose-only effect; inactive = flat fitted curve, though single readings scatter; cell line not stated here;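 note: potency is the fitted concentration of half-maximal effect; % of control where 0% means no effect; nearly all actives have a fitted effect of over 65% in size; a mitochondrial uncoupler was the plate control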
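A stable cell line was treated with compounds at 5 concentrations for 24 hours, with CCCP as control. PINK1 levels and mitochondrial localization were measured by immunofluorescence with mitochondrial, cell and nuclear markers after fixation, read by laser-scanning cytometry.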
gsp antag: antagonists of gsp mutant (McCune-Albright syndrome); gsp-mutant cells, cAMP HTRF, 30 min; control for the full effect not named in the record; Potency, µM (top dose mostly 76.9 µM), for the others: at the highest dose activity change, negative = inhibition, hits mostly inhibitors; actives 0.4% (n = 340,000); active = falling curve of any shape with a large fitted effect; inconclusive = falling curve, mostly with a smaller effect; inactive = flat or rising curve; cell line not stated here;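 note: intracellular cAMP measured with PDE inhibitor Ro 20-1724 present during compound exposure; potency is the fitted concentration of half-maximal effect; % is set by controls: 0 for no effect and ±100 for the full control effect; nearly all actives have a fitted effect of over 65% in size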
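G418-selected cells were plated in DMEM/10% FBS for 16-24 h at 37C, then treated with compounds plus the PDE inhibitor […] (300 uM solution added) for 30 min at 37C. Intracellular cAMP was measured by HTRF after 30 min lysis at room temperature.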
Menin-MLL FL inh: menin-MLL binding inhibition, fluorescein peptide; AID 1766; Fluorescence polarization, fluorescein-MLL peptide displacement from menin; 290,000 tested, under 10 active; FP activity change, % at 61.4 µM; inconclusive = falling polarisation curve, or a change in total fluorescence; inactive = total fluorescence flat and polarisation flat or rising; no compound was filed as active; the % refers to the polarisation; negative = inhibition;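 note: % of control where 0% means no effect; inhibitors lower the polarisation; unlabelled MLL peptide was the positive control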
Sfp inh: Sfp phosphopantetheinyl transferase inhibition; Q9F4F7; Biochemical Sfp PPTase activity, qHTS; Potency, µM, without a hit: max response, negative = inhibition, usual class: inhibitors; actives 3.5% (n = 310,000); active = well fitted inhibition curve with a large enough effect; inconclusive = small, poorly fitted or top-dose-only effect, or another doubt; inactive = no such curve, though single readings can be large or run the other way;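 note: the enzyme is Sfp with the accession as filed and its product quenches rhodamine fluorescence; potency is the fitted concentration of half-maximal effect; 0% = enzyme reaction without inhibitor and -100% = no enzyme wells; top concentration of the series not given in the record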
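Sfp 15 nM + cpd, 15 min RT; start w/ rhodamine-CoA 5 uM, BHQ-2-YbbR 12.5 uM (final); 50 mM Hepes pH 7.6, 10 mM MgCl2, 0.01% NP-40, 0.01% BSA; read 525/598 nm at 0 and 30 min.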
D2 ag: agonists of human D2 dopamine receptor (beta-arrestin); P14416; DiscoveRx PathHunter D2 beta-arrestin, luminescence, 90 min; 100% = 57 uM dopamine signal; activation, % (concentration not given with the values); actives 0.084% (n = 360,000); in the data active = activation above about 40%; inconclusive = about 15% to 40%; inactive = below about 15%; note: compound concentration not given in the record; the text of the record calls up to 30% inactive
Target sequence (P14416 whole entry, looked up): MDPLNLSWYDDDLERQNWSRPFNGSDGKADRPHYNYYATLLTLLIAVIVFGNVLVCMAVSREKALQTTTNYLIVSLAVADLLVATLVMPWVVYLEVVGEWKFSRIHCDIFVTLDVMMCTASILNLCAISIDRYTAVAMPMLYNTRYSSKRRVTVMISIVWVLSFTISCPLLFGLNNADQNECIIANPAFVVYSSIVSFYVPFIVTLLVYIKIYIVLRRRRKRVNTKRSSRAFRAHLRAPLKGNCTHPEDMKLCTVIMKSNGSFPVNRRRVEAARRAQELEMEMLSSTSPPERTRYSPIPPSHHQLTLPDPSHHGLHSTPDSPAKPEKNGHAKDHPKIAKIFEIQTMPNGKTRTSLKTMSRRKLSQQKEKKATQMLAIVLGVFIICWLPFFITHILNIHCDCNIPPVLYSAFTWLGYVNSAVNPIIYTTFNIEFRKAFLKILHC
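Agonist mode: compounds alone added to overnight-plated D2 PathHunter cells for 90 min at 37 C, with 57 uM final dopamine (EC100) defining full response. Beta-arrestin recruitment detected by chemiluminescent reagent, read after 1 h at ambient temperature.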
gsp ag: activates gsp, the McCune-Albright syndrome mutation | AID 624287 | Potency, µM (doses to about 76.9 µM), for the others: top-dose activation (cAMP increase), actives largely listed as activators | actives 0.13% (n = 340,000) | gsp mutant cells, cAMP HTRF, 30 min; control for the full effect not named in the record; active = well fitted activation curve with a large enough effect; inconclusive = small, poorly fitted or top-dose-only effect, or another doubt; inactive = no such curve, though single readings can be large or run the other way; cell line not stated here;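 note: phosphodiesterase inhibitor Ro 20-1724 added with compounds to block cAMP breakdown; potency is the fitted concentration of half-maximal effect; nearly all actives have a fitted effect of over 60% in size; about a fifth of the inactives were tested at one dose only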
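Cells in DMEM/10% FBS with G418 were pretreated with compounds in DMSO plus […] (300 uM stock) for 30 min at 37C. cAMP was measured by HTRF (cAMP-d2 plus anti-cAMP antibody-K) after 30 min at room temperature.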
Active calls of the source: *; u = inconclusive; x = not tested or not shown; [ ] = another dose, or the depositor's remark.

SMILES	ClpP mod	PINK1 modulator	gsp antag	Menin-MLL FL inh	Sfp inh	D2 ag	gsp ag
Cc1ccccc1NC(=S)NC(NC(=O)N(C)C)C(Cl)(Cl)Cl (stereo unspecified)	0.2%	-0.5%[38.3 µM]	4%	3.5	-19%	3.0	3%
Clc1ccccc1N1CCN(Cc2ccco2)CC1	0.2%	4.5%	7%	0.6	-1%	0.3	-21%
Cc1ccc(Cn2c(CN3CCN(C(=O)c4ccco4)CC3)nc3c2c(=O)n(C)c(=O)n3C)cc1	0.1%	9.7%[38.3 µM]	-16%	-0.6	0%	-0.7	34%
O=C1CSC(c2ccc(Cl)cc2)N1 (stereo unspecified)	0.2%	3.0%[38.3 µM]	-3%	9.1	79µM*	-2.8	11%
COc1ccc(-c2csc(=Nc3c(C)n(C)n(-c4ccccc4)c3=O)n2C(C)(C)C)cc1	-0.4%	-3.1%[38.3 µM]	-2%	-0.3	-5%	1.8	19%
CCOC(=O)c1cccc(NC(=O)CSc2nnnn2CC)c1	0.5%	4.0%	-13%	0.9	10%	-4.3	-1%
CCOC(=O)COc1ccccc1/C=N/Nc1nnc2c3ccccc3n(C)c2n1	x	4.4%	5%	x	x	-4.0	9%[15.4 µM]
COc1ccc(-n2c(O)c(Cc3ccccc3)c(=O)n3nc(-c4ccccc4)c(=O)cc23)cc1	-1.7%	0.5%	-6%	4.6	20%	-2.6	14%
Cc1ccc(S(=O)(=O)NCCC(=O)NC2CCCCCC2)cc1	x	-4.5%	12%	x	x	0.7	-14%[15.4 µM]
CC(C)(C)c1ccc2c(c1)OC(C(=O)N/N=C/c1ccc([N+](=O)[O-])o1)CO2 (stereo unspecified)	x	15%	-3%	3.2	6%	3.5	2%
Cc1[nH]c2c(C)cccc2c(=O)c1Br	-1.0%	0.4%	4%	3.3	10%	-1.2	17%
O=C1OC(c2ccccc2)c2ccc3ccccc3c21 (stereo unspecified)	u	11%	0%	3.7	-13%	2.6	-28%
COc1ccccc1C(=O)CSc1cccc[n+]1[O-]	0.2%	0.2%	8%	9.0	-12%	-5.1	-1%[15.4 µM]
CCN(CC)CCn1c(/N=C/c2ccc(OC)c(OC)c2)nc2ccccc21	x	-0.4%	-8%	x	x	-2.2	-18%[15.4 µM]
COC(=O)c1ccc(C2=NOC(C)(c3sc(-c4ccc(Cl)cc4)nc3C)C2)cc1 (stereo unspecified)	25µM*	-0.2%	1%	-0.7	-7%	-3.1	x
O=C(OCc1ccc([N+](=O)[O-])cc1)c1cnc(Cl)c(Cl)c1	x	-2.2%	-28%	1.9	9%	-1.3	8%
CC(=O)Nc1ccc(CNc2nc3cc(-c4ccsc4)sc3c(=O)n2C)cc1	u	7.3%	x	x	x	-2.4	x
N#C/C(=C\c1ccccc1)C(=O)NNS(=O)(=O)c1cccc([N+](=O)[O-])c1	-1.2%	0.6%	6%	x	x	0.1	13%
O=S(=O)(c1ccccc1)N1CCC2(CCCN(c3ccncc3)C2)CC1	x	-0.8%	x	-4.5	14%	x	x
Nc1oc2ccccc2c(=O)c1-c1ccc2c(c1)OCO2	-0.8%	0.5%	u	-11	7%	-0.4	26%[15.4 µM]
CCOc1ccc(-c2n[nH]c(=S)o2)cc1	x	-0.3%	-27%	-4.8	1%	-14	6%[15.4 µM]
O=c1oc2ccccc2c(NCc2ccccc2)c1[N+](=O)[O-]	-0.5%	-0.6%	7%	2.1	-1%	-0.4	-5%
CN(CC1CCCN(CCc2ccc(Cl)cc2)C1)C(=O)C(=O)c1ccco1 (stereo unspecified)	1.0%	0.1%	9%	x	1%	-2.7	8%
CCC(=O)Nc1ccc(C(=O)NNC(=O)c2ccc([N+](=O)[O-])cc2)cc1	x	2.3%	1%	-5.8	11%	-2.2	-13%
Cc1cc([N+](=O)[O-])nn1CC(=O)N/N=C/c1ccccc1F	0.3%	2.5%	2%	3.6	8%	-5.9	0%[15.4 µM]
CCCCN=C1NC(=O)C(CC(=O)NCCc2ccc(OC)cc2)S1 (stereo unspecified)	1.2%	-0.2%	-11%	8.8	-12%	-4.1	26%
Cc1ccc(C(=O)CSc2nnc(-c3cccnc3)n2N)cc1	-3.0%	3.5%[38.3 µM]	1%	-0.5	1%	-5.5	-6%
CCCCCC(=O)NC(=S)Nc1cccc(C(C)=O)c1	x	-0.4%	-1%	8.5	1%	-3.8	9%
CC(C)c1ccc(NC(=S)NC2CC3C=CC2C3)cc1 (stereo unspecified)	2.2%	u	-1%	1.2	-6%	-0.9	-12%
Cc1ccc(OC(C)C(=O)Nc2ccccc2C(=O)N2CCN(C)CC2)cc1 (stereo unspecified)	-1.6%	-2.0%	2%	-0.5	12%	-0.1	3%
Cc1cc(-c2ccc(S(=O)(=O)N3CCN(C)CC3)s2)on1	0.8%	-0.6%	-6%	1.2	19%	-2.5	18%
COc1cc(C(C)=O)ccc1OCC(O)CN1CCN(c2ccccc2)CC1 (stereo unspecified)	-4.4%	1.5%	-5%	-0.6	0%	46*	u
Cc1noc(C(=O)Nc2c(C)nn(Cc3ccccc3)c2C)c1Cl	1.5%	-0.5%	7%	1.5	20%	-4.7	u
CC(C)(C)c1ccc(C(=O)NNC(=O)c2ccc(Cl)cc2)cc1	1.2%	11%	22%	0.0	14%	-1.2	-22%[15.4 µM]
Cn1c(CNc2ccccc2)nc2ccccc21	0.9%	-0.3%	9%	1.1	7%	-2.3	2%
COCCCNC(=S)NCCCNc1nc2cc3c(cc2cc1C#N)OCO3	u	-4.0%[38.3 µM]	4%	2.3	-10%	0.4	-8%
CSCCC(C(=O)Nc1c(C)cccc1C)N1CCN(C/C=C/c2ccccc2)CC1 (stereo unspecified)	1.6%	0.5%	x	x	x	-5.0	x
CCOc1ccc(NC(=O)CC2S/C(=N/N=C3CCCCCC3)NC2=O)cc1 (stereo unspecified)	-2.0%	-0.2%	-6%	x	24%	-3.4	u
O=C(CCCC(=O)NCc1ccc(F)cc1)NCc1ccc(F)cc1	x	-0.2%	6%	-1.1	13%	-1.7	20%[15.4 µM]
CN(C)c1ccc(-c2ccc3ncnc(-n4ccnc4)c3c2)cc1	x	-0.9%	x	u	-22%	x	x
COc1ccc(C(=O)CCN2CCCC(C)C2)cc1 (stereo unspecified)	-0.2%	1.1%	-7%	1.9	-16%	-2.1	16%[15.4 µM]
Cc1cc(=O)n(C)c(=O)n1CC(=O)N1CCCCCC1	-1.1%	-0.7%	-8%	-2.0	8%	-2.6	-4%
CCCCOc1ccc(NC(=O)C2OC3OC(C)(C)OC3C3OC(C)(C)OC23)cc1 (stereo unspecified)	x	3.4%	1%	2.3	-3%	-4.4	8%[15.4 µM]
Cc1nc(-c2ccccc2)sc1-c1nc(-c2ccccc2)ncc1S(=O)(=O)c1ccccc1	32µM*	1.7%	-12%	0.4	9%	-2.8	2%
CC(C)c1cc(N=O)cc(C(C)C)c1O	2.1%	5.8%	-7%	x	x	2.8	-7%
CCOC(=O)c1c(C)c(C(=O)O)n(C)c1C	-0.5%	4.2%[38.3 µM]	2%	3.8	14%	-1.2	-18%
Cc1cccc(OC(=O)n2c(=S)oc3cc(Cl)ccc32)c1	56%	1.0%	u	-0.2	1%	-0.5	-44%[inhibitor]
C[C@H](CO)N1C[C@H](C)[C@@H](CN(C)C(=O)Nc2ccccc2)Oc2c(NC(=O)NC3CCCCC3)cccc2C1=O	-0.7%	0.5%	-8%	x	x	-2.2	u
CC(=O)Nc1nc(-c2cc([N+](=O)[O-])cs2)cs1	-3.4%	1.3%	-20%	2.6	7%	2.6	u
c1ccc2c(c1)nnn2Cn1nnc2ccccc21	0.8%	-0.5%	x	x	x	-2.6	5%

Additional results
SMILES	ClpP mod	PINK1 modulator	gsp antag	Menin-MLL FL inh	Sfp inh	D2 ag	gsp ag
N#Cc1ccccc1NC(=O)CNc1cc(S(=O)(=O)N2CCOCC2)ccc1NCC1CCCO1 (stereo unspecified)	-8.2%	1.8%	3%	x	x	0.1	u
COc1cccc(OC)c1NC(=O)C1CCCN1C(=O)Nc1cccc(Cl)c1 (stereo unspecified)	x	-0.1%	5%	2.6	9%	-0.6	14%
Cc1ccc(C(=O)COC(=O)c2cn(-c3ccccc3)nc2-c2ccccc2)cc1[N+](=O)[O-]	0.8%	-0.3%	-6%	1.5	8%	0.2	0%
COc1ccc(CNC(=O)C2CC(c3ccc(OC)cc3)=NO2)cc1 (stereo unspecified)	2.0%	1.2%[38.3 µM]	13%	0.7	6%	-0.7	u
CCCn1c(SCC(=O)Nc2ccc(OC)cc2)nnc1-c1ccncc1	-1.2%	1.2%	4%	-1.4	12%	-1.5	-13%
Cc1cc(Br)ccc1NC(=S)NCCc1ccccc1	0.1%	0.2%	-2%	x	11%	-1.2	-20%
C=CCNC(=O)N1CCCC(C(=O)c2cccc(Cl)c2)C1 (stereo unspecified)	x	1.1%	1%	-1.6	-3%	5.1	u
C[C@@H]1CCCCO[C@H](CN(C)Cc2ccc3c(c2)OCO3)[C@H](C)CN([C@@H](C)CO)C(=O)c2cc(NC(=O)c3ccccc3)ccc2O1	-4.9%	1.5%	x	x	x	-2.6	u
CCOCCCNC(=O)c1ccc2c(c1)ncn2-c1cccc(C)c1	x	7.8%	-6%	-0.7	12%	-0.9	0%
CC(Cc1cccs1)NC(=O)Nc1ccccc1 (stereo unspecified)	-1.2%	5.8%[38.3 µM]	-7%	4.7	20%	-3.7	-2%
COc1ccc(CCNC(=O)CCn2c(SCC#N)nc3ccccc3c2=O)cc1OC	-3.1%	x	-4%	2.3	7%	-1.8	-28%
